High-throughput results from PubChem BioAssay.
Cruzain noTriton – cruzain (T. cruzi) inhibition without detergent; AID 1476; purified cruzain, Z-FR-AMC fluorescence, no detergent; P25779; 200,000 tested, 2.3% active; Potency, µM, for inactives: max response, negative = inhibition, most hits filed as inhibitors; active = well fitted curve in the direction sought with a large enough effect; inconclusive = small, poorly fitted or top-dose-only effect, or another doubt; inactive = no such curve, though single readings can be large; an effect the other way counts as inactive or inconclusive;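 note: plate controls were enzyme without inhibitor for no effect and buffer without enzyme for full effect; nearly all actives have a fitted effect of over 40% in size; top concentration of the series not given in the record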
Target sequence (P25779 123-467 limits assumed): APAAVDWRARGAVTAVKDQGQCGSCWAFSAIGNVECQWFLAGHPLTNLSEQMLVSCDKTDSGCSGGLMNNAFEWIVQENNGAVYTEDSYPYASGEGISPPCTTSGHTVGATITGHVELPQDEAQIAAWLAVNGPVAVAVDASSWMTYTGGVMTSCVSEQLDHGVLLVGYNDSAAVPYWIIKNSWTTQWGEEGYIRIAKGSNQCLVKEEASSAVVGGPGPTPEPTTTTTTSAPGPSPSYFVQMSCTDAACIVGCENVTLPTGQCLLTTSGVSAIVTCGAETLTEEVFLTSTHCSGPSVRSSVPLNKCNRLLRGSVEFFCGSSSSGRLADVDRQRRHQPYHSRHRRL
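Purified cruzain at 1.5 nM, pre-incubated 15 min with compound at room temperature in 100 mM sodium acetate pH 5.5, 5 mM DTT, 0.00005% Triton X-100. Reaction started with 2 uM Z-FR-AMC; AMC fluorescence increase over 60 s gives rate.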
LASV entry inh – Lassa virus entry inhibition; Lassa virus pseudotype entry inhibition, cell reporter; control for the full effect not named in the record; Potency, µM (doses to about 37.9 µM), for inactives: at the highest dose activity change, negative = inhibition, most hits filed as inhibitors; 300,000 tested, 1.2% active; AID 540256; active means well fitted inhibition curve with a large enough effect; inconclusive means small, poorly fitted or top-dose-only effect, or effect the other way; inactive means flat fitted curve, though single readings scatter; tested in HEK293 cells; note: % is set by controls: 0 for no effect and ±100 for the full control effect; nearly all actives have a fitted effect of over 50% in size; luciferase read-out
2A StopGo – lowers the luciferase signal of an FMDV 2A StopGo reporter | human cells with a luciferase reporter of 2A StopGo recoding; control for the full effect not named in the record | Potency, µM (highest dose often 57.9 µM), for inactives: at the highest dose signal change, negative = less light | 410,000 tested, 1.2% active; active = well fitted falling curve with a large enough effect; inconclusive = small, poorly fitted or top-dose-only effect; inactive = no such curve, though single readings can be large or run the other way; tested in HEK293T cells; note: % is set by controls: 0 for no effect and ±100 for the full control effect; nearly all actives have a fitted effect of over 45% in size; luciferase light after 4 h
SARS PLP yeast – SARS-CoV PLP inhibition in yeast; S. cerevisiae expressing SARS-CoV PLpro, growth rescue; control for the full effect not named in the record; AID 485353; Potency, µM (highest dose often 32.9 µM), for the others: at the highest dose activity, positive = growth rescue; 330,000 tested, 0.19% active; note: 0% is about no effect; nearly all actives have a fitted effect of over 55% in size; growth read by luminescence after 48 h
NS1 function inh – influenza NS1 inhibition | Potency, µM (highest dose often 46.1 µM), inactives show at the top dose activity, positive = more growth | 270,000 tested, 0.4% active | S. cerevisiae slowed by influenza A NS1, growth recovery by OD600; note: actives are rising curves; nearly all actives have a fitted effect of over 50% in size
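Recovery from NS1-induced slow growth read by OD600 in budding yeast switched to galactose assay medium (pH 6.0, -URA) at 1:100 dilution. Compound 23 nl per well; the matching strain lacking NS1 serves as control.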
Marburg entry inh – blocks Marburg virus binding to or entry into cells; Marburg virus pseudotyped entry inhibition, cell reporter; control for the full effect not named in the record; about a third of the inactives were read at about 46 µM; Potency, µM (titrated, usually from 37.8 µM), without a hit: top-dose activity change, negative = inhibition, most hits filed as inhibitors; 300,000 tested, 1.8% active; AID 540276; active = well fitted inhibition curve with a large enough effect; inconclusive = small, poorly fitted or top-dose-only effect, or effect the other way; inactive = flat fitted curve, though single readings scatter; tested in HEK293 cells; about a fifth of its hits are not listed in these tables; note: % is set by controls: 0 for no effect and ±100 for the full control effect; luciferase read-out
RE007 growth inh – less growth of the S. pombe RE007 Vpr strain | AID 651644 | Potency, µM (titrated, usually from 92.2 µM), inactives show at the top dose activity change, negative = less growth | 360,000 tested, 0.21% active | S. pombe RE007 Vpr strain, BacTiter-Glo ATP luminescence, 24 h; control for the full effect not named in the record; active = well fitted falling curve with a large enough effect; inconclusive = small, poorly fitted or top-dose-only effect; inactive = no such curve, though single readings can be large or run the other way;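 note: % is set by controls: 0 for no effect and ±100 for the full control effect; nearly all actives have a fitted effect of over 50% in size; the assay follows cell death caused by Vpr and the record does not say whether a fall means rescue or toxicity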
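Fission yeast RE007 carrying one integrated HIV-1 vpr copy, seeded at OD 0.01 in PMG+AL medium with 23 nL pinned compound. Grown 24 h at 30 degrees; viability read by BacTiter-Glo luminescence after 5 min.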
Cruzain inh Det – inhibitors of Trypanosoma cruzi cruzain with detergent; Potency, µM, for the others: max response, negative = inhibition, hits mostly inhibitors; 200,000 tested, 0.43% active; P25779; purified cruzain, Z-FR-AMC fluorescence, 0.01% Triton; active = well fitted curve in the direction sought with a large enough effect; inconclusive = small, poorly fitted or top-dose-only effect, or another doubt; inactive = no such curve, though single readings can be large; an effect the other way counts as inactive or inconclusive;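 note: plate controls were neutral wells for no effect and buffer without enzyme for full effect; nearly all actives have a fitted effect of over 40% in size; top concentration of the series not given in the record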
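Z-FR-AMC hydrolysis (2 uM substrate) by cruzain (1.5 nM) monitored kinetically at ex 360/em 450 nm after 15 min room-temperature compound exposure; 0.01% Triton X-100, pH 5.5, 5 mM DTT.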
Starred values were filed as active, the others as inactive; u = inconclusive; x = not tested or not shown; & = joins results of further samples; [ ] = another dose, or the depositor's remark. Unless noted, calls come from the whole dose curve; as a rule, active means well fitted rising curve with a large enough effect; inconclusive means small, poorly fitted or top-dose-only effect; inactive means no such curve, though single readings can be large or run the other way. Potency is the fitted concentration of half-maximal effect.

canonical_smiles	Cruzain inh Det	SARS PLP yeast	Marburg entry inh	LASV entry inh	RE007 growth inh	Cruzain noTriton	2A StopGo	NS1 function inh
C=C(C)CSc1nnc2[nH]c(=O)cc(N)n12	x	x	-4.8%	5.8%	14.0%	x	15.1%	11.0%
COc1ccc(/C=N/Nc2nccnc2Cl)c(OC)c1	x	0.0%	21.2%[46.1 µM]	u	-5.8%	x	19.4%	-2.5%
CCCNC(=O)NC(=O)CSc1nnc(C)n1N	0.3%	8.9%	0.6%	-0.8%	-4.0%	4.7%	-16.2%	-3.6%
Cc1ccc2c(Cl)cc(Cl)c(OCC(=O)NCCc3ccccn3)c2n1	x	-3.5%	x	x	-21.5%	x	-22.2%	-34.6%
CCOc1ccccc1CNC(=O)c1cnc2sc(N3CCOCC3)nn2c1=O	0.4%	x	x	18.1%[46.1 µM]	x	-3.4%	-12.9%	x
COc1ccccc1C(=O)Nc1c(C)cc(Br)cc1C	x	-0.1%	x	x	0.3%	x	-2.5%	-39.6%
COc1ccc(-n2nc3ccc(NC(=O)COc4ccc(C)c(C)c4)cc3n2)cc1	-0.1%	x	-2.8%[46.1 µM]	-7.1%[46.1 µM]	x	3.9%	-6.0%	x
CCCCC(=O)NC(NC(=S)N1CCCCCC1)C(Cl)(Cl)Cl (stereo not drawn)	1.7%	7.7%	u	0.7%	-2.1%	0.5%	-20.2%	-12.2%
CC1(C)CC(=O)C=C(N2CCOCC2)C1	x	1.8%	20.9%[46.1 µM]	-0.5%	2.0%	x	-8.9%	x
Cc1cccc(N(CC(=O)NCCSCc2ccccc2)S(C)(=O)=O)c1	x	1.3%	x	x	-7.9%	x	-11.0%	-4.3%
O=C(C1=C[C@@H](c2csc3ccccc23)C[C@@H](OCc2ccc(CO)cc2)O1)N1CCN(Cc2ccc3c(c2)OCO3)CC1	x	0.7%	x	x	u	x	-26.8%	11.9%
COc1ccc(CN2CCC(CNC(=O)NC3CCCCC3)CC2)cc1	7.7%	0.4%	-18.8%[46.1 µM]	-0.4%	5.1%	-0.4%	-7.0%	-3.1%
CSCCC1NC(=O)C(C(C)=Nc2ccccc2)=C1O (stereo not drawn)	x	x	27.1%	0.0%	16.0%	x	38.6%[activator]	x
CCOc1cc(/C=N/Nc2ncnc(Cl)c2N)ccc1O	-8.6%	-13.6%	0.1%	8.4%	x	-11.7%	-17.0%	-4.5%
O=C(NCC1CCCCC1)c1cccnc1	x	3.1%	x	x	7.9%	x	0.6%	10.0%
O=C(Nc1ccc2c(c1)OCO2)c1cccc2c1C(=O)N(Cc1cccnc1)C2	-5.3%	-11.0%	5.0%[46.1 µM]	-13.3%	-6.7%	22.3%	-8.6%	-48.3%
O=C(Nc1ccccc1)c1ccncc1	-0.9%	x	0.0%	-9.3%	-14.0%	0.1%	-1.4%	-2.7%
Cc1ccc(C2=Nc3ccccc3SC(c3cccc([N+](=O)[O-])c3)C2)cc1 (stereo not drawn)	x	-7.4%	x	x	-2.2%	x	-3.8%	-58.5%
Nc1cc([N+](=O)[O-])ccc1OCc1ccccc1	x	x	-28.4%	-29.1%	0.0%	x	-12.4%	x
CC(=O)Nc1ccc(NC(=O)c2ccnn2C)cc1	x	x	20.4%[46.1 µM]	13.2%[46.1 µM]	8.3%	x	0.2%	x
Cc1cc2cc3c(cc2nc1SCC(=O)O)CCC3	x	-4.0%	-5.4%	12.0%	1.9%	x	0.5%	-95.3%
C/C(=N\NC(=O)c1ccc(Cl)cc1)c1ccccn1	x	-17.8%	0.891µM*	1.26µM*	u	x	u	-115.3%
CC(=O)C1=C(O)C(=O)N(C)C1c1ccccc1[N+](=O)[O-] (stereo not drawn)	x	-0.8%	-5.1%[46.1 µM]	4.7%[46.1 µM]	-17.1%	x	11.6%	-1.9%
c1ccc(Nc2c(-c3c[nH]c4ccccc34)nc3ccccn23)cc1	-11.0%	x	u	6.3%[46.1 µM]	x	3.1%	3.8%	x
Cc1ccc(-c2nc3scc(CCNC(=O)c4cccc(Br)c4)n3n2)cc1	-3.8%	x	x	2.2%[46.1 µM]	x	-2.0%	-0.9%	x
O=C(N/N=C/c1ccccc1[N+](=O)[O-])c1ccc2c(c1)OCCO2	x	1.0%	2.51µM*	1.41µM*	-1.3%	x	u	4.2%
Cc1ncoc1C(=O)Nc1ccccc1-c1ccccc1	0.1%	1.9%	3.7%	7.0%	10.0%	5.2%	19.0%	0.8%
CC(=O)c1sc(NC(=O)c2ccc(F)c(F)c2)nc1C	-7.2%	7.6%	u	-4.0%	-8.9%	-7.4%	59.2%[activator]	-16.8%
CN(C)c1ccc(N/C(=N\S(=O)(=O)c2cccs2)c2ccccc2)cc1	-3.5%	3.3%	0.9%	x	-4.6%	6.4%	42.2%[activator]	-12.8%
Cc1ccc(S(=O)(=O)c2ccc(Cl)cc2)cc1S(=O)(=O)N1CCOCC1	-2.7%	-1.4%	u	-3.8%	-14.3%	21.2%	0.0%	-47.9%

Next records:
canonical_smiles	Cruzain inh Det	SARS PLP yeast	Marburg entry inh	LASV entry inh	RE007 growth inh	Cruzain noTriton	2A StopGo	NS1 function inh
O=C(C[n+]1ccc(C(=O)c2ccccc2)cc1)Nc1ccc(C(F)(F)F)cc1	x	3.3%	u	14.9%[46.1 µM]	-4.5%	x	-5.9%	x
O=C(NCC1CCCO1)c1onc(CSc2cccc3ccccc23)c1C(=O)O (stereo not drawn)	-5.3%	1.8%	0.2%	x	5.3%	23.3%	0.1%	15.4%
Cc1cccn2c(=O)c(C=O)c(Nc3ccccc3)nc12	x	-1.7%	3.4%	-0.4%	-5.3%	x	-2.1%	-10.3%
Cc1cccc(C=NOCCc2ccccc2)n1	x	x	-1.0%	-4.9%	-9.7%	x	33.6%[activator]	x
COc1ccc(NC(=O)CCNS(=O)(=O)c2cccc3nsnc23)c(OC)c1	x	-10.3%	0.6%[46.1 µM]	-13.1%	4.0%	x	15.6%	-7.6%
O=C1c2cccc3cccc(c23)C(=O)N1c1ccncc1	-5.9%	-4.6%	-8.3%[46.1 µM]	2.8%	29.3%	-12.9%	u	-4.2%
O=C(NCc1cccnc1)Nc1ccccc1	x	-0.4%	x	x	-14.7%	x	37.0%	1.1%
CCC(C)NC(=O)Cc1ccc(NC(=O)N2CCCCc3ccccc32)cc1 (stereo not drawn)	-0.5%	x	x	13.5%[46.1 µM]	x	-6.4%	9.4%	x
Cc1ccc(C(=O)Nc2ncccc2O)o1	x	-0.6%	u	-0.3%	-2.9%	x	15.0%	x
Cc1ccc(C(=O)N2c3ccccc3OCC2C)cc1 (stereo not drawn)	x	-0.6%	x	x	-4.4%	x	-11.1%	-7.2%
COc1cc(/C=C2\C[C@H]3[C@@H]4CC=C5C[C@@H](N6CCCC6)CC[C@]5(C)[C@H]4CC[C@]3(C)[C@H]2O)cc(OC)c1OC	x	x	10µM*	-28.3%	18.3%	x	-2.3%	x
COc1cc(CNn2cn[nH]c2=S)ccc1OCC(=O)NC(C)(C)C	x	-0.3%	-4.3%[46.1 µM]	u	12.1%	x	5.0%	20.9%
CCc1ccc2nc(N(Cc3cccnc3)C(C)=O)sc2c1	-8.8%	x	x	12.8%[46.1 µM]	x	u	29.0%	x
CC1=C(C)C(=O)N(C(C)CCc2ccccc2)C1=O (stereo not drawn)	x	u	x	x	-12.2%	x	-5.1%	-6.2%
Cc1ccc(Cl)cc1N1CCN(CC(=O)NC2CCCc3ccccc32)CC1 (stereo not drawn)	-10.4%	x	-58.3%	u	13.1%	16.3%	-22.1%	-41.0%
CCc1ccc(NC(=O)CCC(=O)N2CCSc3ccccc32)cc1	x	-7.4%	x	x	-2.1%	x	u	-51.2%
CCCNC(=O)Cn1nc(C(F)(F)F)c2c1CCCC2	-3.5%	-9.7%	-18.1%	10.1%	1.2%	5.6%	4.8%	7.9%
Cc1c(F)cccc1NC(=O)c1ccc2c(c1)CCN2S(C)(=O)=O	x	2.2%	u	-1.8%[46.1 µM]	7.6%	x	5.9%	-9.4%
CN(C(=O)COC(=O)c1cccc(F)c1)c1ccccc1	x	-2.4%	26.6%[46.1 µM]	u	-20.7%	x	46.7%[activator]	-1.2%
CC1CCCC(C)N1S(=O)(=O)c1ccc(NC(=O)CNCC2CCCO2)cc1 (stereo not drawn)	-3.8%	5.1%	4.6%&15.5%	30.4%[14.3 µM]	9.1%	7.8%	46.7%[activator]	0.4%
CC(=O)SCCC(=O)N1C(C)CCCC1C(=O)O (stereo not drawn)	3.0%	1.0%	19.6%	1.6%	-7.8%	-4.7%	-19.7%	-10.3%
Cc1cc(OCc2cc(C(=O)N(C)C(C)c3ccccn3)no2)cc(C)c1Cl (stereo not drawn)	x	-22.5%	x	x	16.4%	x	20.4%	2.4%
COCCSc1nnc(NC(=O)c2ccc(NC(C)=O)cc2)s1	x	0.7%	0.5%[46.1 µM]	3.1%[46.1 µM]	0.7%	x	1.5%	6.6%
Cc1nc2c(sc3nc(N4CCOCC4)c4c(c32)CC(C)(C)OC4)c(-c2ccccc2)c1C(=O)O	x	0.5%	x	x	0.1%	x	-20.6%	-0.9%
O=C(NCc1ccccc1)c1cc(S(=O)(=O)N2CCOCC2)ccc1F	-0.7%	0.0%	1.5%	-6.5%	1.9%	1.8%	21.8%	-0.9%
CCOC(=O)C1=C(C)OC(N)=C(C#N)C1c1ccc(C)o1 (stereo not drawn)	-0.2%	4.0%	u	-29.2%	-19.7%	4.2%	x	-1.9%
O=C(COC(=O)C1CCN(c2ccc(C(F)(F)F)cn2)CC1)Nc1ncc(Cl)cc1Cl	x	-0.1%	9.6%	4.7%	-1.4%	x	-16.2%	x
O=C(CN(C(=O)CNC(=O)c1cccs1)c1cccc(F)c1)NC1CCCCC1	x	0.2%	27.4%[46.1 µM]	1.4%	-21.6%	x	32.6%[activator]	5.8%
Cc1cc2ccccc2n1CCNC(=O)C1CCCC1	4.1%	0.3%	u	-3.5%	6.9%	-5.9%	-4.0%	13.1%
O=C(O)CNC(=O)/C(=C\c1ccco1)NC(=O)c1ccco1	x	1.4%	x	x	1.0%	x	12.6%	0.2%
